# From PubChem
# Yeast UUG start: yeast start codon fidelity modulation; activity score, % at 18.7 µM; S. cerevisiae UUG-firefly luciferase reporter, luminescence/redox ratio; AID 602363; actives 0.13% (n = 350,000);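 active = replicate mean at a twofold rise or more, about +100% in these data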;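 also: firefly luciferase made from a UUG start codon reports start codon fidelity; reporter light over untreated wells divided by growth signal over untreated wells; some hits fall short of that in this replicate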
# CSC inhib: blocks cancer stem cells | actives 1.1% (n = 300,000) | cancer stem cell-like cells viability, luminescence | inhibition, % at 7.5 µM;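 active = mean at 75% or more and at least half the replicates too; inconclusive = mean and replicates disagree; tested in HMLE shEcad cells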;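 also: 0% = median of negative and 100% = median of positive control wells; the first replicate is given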
# Rce1 inhib: inhibitors of yeast Ras-converting enzyme; Q03530; yeast membranes, quenched prenylated peptide cleavage fluorescence; calls only; actives 0.27% (n = 290,000);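 active = fall in fluorescence gain of 50% or more versus controls, with final raw signal at or below 3038400; inconclusive = same 50% fall but final raw signal above 3038400; inactive = fall in fluorescence gain under 50%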;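 also: plate controls were neutral control wells for no effect and wells lacking membranes for full effect; tested at 10 µM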
# PABP FP inh: blocks human PABP binding to poly(A) RNA; fluorescence polarization; actives 1% (n = 290,000); P11940; AID 2014; inhibition, % at 35 µM;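 active = 50% or more with normal probe brightness, or confirmed in later tests; inconclusive = above 50% with abnormal brightness, or retests that disagree; inactive = below 50% or failed in later tests; about a fifth of its hits are not listed in these tables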;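 also: calls also rest on retests at 20 µM and on dose response follow-up; controls were probe without protein and protein plus probe with vehicle; some compounds called inactive have numbers as strong as hits; many hits fall short of the cut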
# Target sequence (P11940 whole entry, looked up): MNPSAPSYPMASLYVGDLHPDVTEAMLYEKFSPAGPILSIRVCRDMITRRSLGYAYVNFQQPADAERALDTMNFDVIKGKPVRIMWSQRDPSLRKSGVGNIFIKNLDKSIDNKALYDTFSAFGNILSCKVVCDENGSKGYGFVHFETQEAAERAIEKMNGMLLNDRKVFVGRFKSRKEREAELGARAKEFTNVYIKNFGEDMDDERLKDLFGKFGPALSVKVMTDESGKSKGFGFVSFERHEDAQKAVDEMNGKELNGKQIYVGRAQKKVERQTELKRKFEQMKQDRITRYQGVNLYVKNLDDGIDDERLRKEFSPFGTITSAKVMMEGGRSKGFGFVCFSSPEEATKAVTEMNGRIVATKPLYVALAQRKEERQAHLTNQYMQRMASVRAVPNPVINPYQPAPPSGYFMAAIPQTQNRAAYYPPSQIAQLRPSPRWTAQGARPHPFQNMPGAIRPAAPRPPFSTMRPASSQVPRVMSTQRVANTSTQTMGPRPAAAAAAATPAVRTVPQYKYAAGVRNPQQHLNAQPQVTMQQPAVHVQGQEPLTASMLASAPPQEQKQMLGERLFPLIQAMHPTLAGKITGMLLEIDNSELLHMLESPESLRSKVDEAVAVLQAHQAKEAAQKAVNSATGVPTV
# HIV Env fusion: blocks HIV Env-driven cell-cell fusion | actives 1.1% (n = 360,000) | HeLa-JRFL Env/CEM21 cell fusion, luciferase | inhibition, % at 12.3 µM | AID 651610;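 active = mean replicate inhibition score of at least 50 and every replicate individually at or above 50; inconclusive = only one of the two criteria met; inactive = mean below 50 and not all replicates reaching 50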;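 also: 0% = plate neutral controls and 100% = maraviroc near 300 nM; one replicate is shown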
# MT1-MMP act inh: inhibitors of human MT1-MMP activation. GFP/RFP ratio change, % at 20 µM. AID 651647. HT1080 RFP-PRO-GFP cells, GFP/RFP ratio fluorescence, overnight; percent of plate control window, DMSO zero. actives 0.061% (n = 360,000). P50281;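 active = GFP/RFP ratio change of at least 30% with cell ATP level not reduced by more than half and red fluorescence within 50% of control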; also: strong numbers were not always called active
#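 Read-out: GFP/RFP fluorescence ratio; Test system: RFP-PRO-GFP reporter HT1080 cells; Compound dosing: single-point 20 µM compound, 1% DMSO; Times: overnight compound exposure at 37 °C.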
# eIF4H inh: inhibitors of RNA binding by human eIF4H; Q15056; eIF4H fluorescence polarization binding assay; inhibition, % at 35 µM; actives 0.94% (n = 290,000); AID 2012;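 active = 50% or more with normal probe brightness, or confirmed in later tests; inconclusive = above 50% with abnormal brightness, or retests that disagree; inactive = below 50% or failed in later tests; about a fifth of its hits are not listed in these tables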;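 also: calls also rest on retests at 20 µM and on dose response follow-up; 0% = protein and probe with vehicle and 100% = probe without protein; strong numbers were not always called active; many hits fall short of the cut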
# MT1-MMP act inh RFP: also measured in MT1-MMP act inh; calls as there; RFP signal change, %; measured here: RFP expression control read;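 0 = vehicle wells; hits needed this value within 50% of zero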
# Numbers without * were called inactive; i = inactive; ? = inconclusive; . = not tested or not shown; & = joins results of further samples.
canonical_smiles,Yeast UUG start,CSC inhib,Rce1 inhib,PABP FP inh,HIV Env fusion,MT1-MMP act inh,MT1-MMP act inh RFP,eIF4H inh
CC(=O)c1cccc(NC(=O)c2ccc(NC(=O)CCS(=O)(=O)c3cccs3)cc2)c1,-4,-3,i,5,-1,-4,-2,-19
CCCn1nc2cc(C(=O)NCCc3ccc(C)cc3)ccc2c1OCC,-7,51,i,-6,-14,6,-1,-10
Cc1ccc(NC(=O)CCn2cccc2)cc1,-11,-6,i,-12,i,0,1,1
CC(C)Cn1c(N)c(C(=O)COC(=O)CC23CC4CC(CC(C4)C2)C3)c(=O)n(C)c1=O,-3,64,i,-2,.,-3,-31,-1
Cc1cc(OC2CCCCC2)nc(NCc2ccccc2)n1,-3,44,i,-1,-19,-1,1,-4
COc1ccc2nc(C)cc(N3CCN(c4ccccc4)CC3)c2c1,-12,10,i,-9,18,1,-5,-5
Cc1cc2nc(/N=C(\N)NC(=O)N3c4ccccc4Sc4ccccc43)nc(C)c2cc1C,-10&-10,3,.,0,13&-7,2&-7,-9&-8,8
Cc1nc(N(C)Cc2ccccc2)c2nnn(Cc3ccccc3)c2n1,-1,6,.,5,27,0,-5,-10
CCN(CC)C(=O)Cn1cc(C(=O)C(=O)N2CC=C(c3ccccc3)CC2)c2ccccc21,.,-13,i,8,3,-72,3,4
CC1SC(=NC(=O)c2ccco2)NC1=O (stereo unspecified),-20,-13,i,0,-23,-7,4,6
CCOC(=O)C1=CCN(S(=O)(=O)c2ccccc2Br)C1c1ccc(F)cc1 (stereo unspecified),-13,.,.,.,8,1,-1,.
O=C(COC(=O)c1ccc([N+](=O)[O-])s1)Nc1ccc(F)cc1,-19,-7,.,.,2,-5,-1,.
COc1ccc(-c2nc3cc(NC(=S)NC(=O)Cc4ccccc4)ccc3o2)cc1,-16,-6,i,-13,.,-1,-3,-4
CC(=O)N1CCSc2ccc(S(=O)(=O)NCc3ccccc3)cc21,-6,-12,i,-3,0,3,-10,2
Cn1ccc(C(=O)N/N=C/c2ccncc2)n1,-3,.,i,4,-4,0,-1,-3
COc1ccc(-n2cc(-c3ccccc3)c3c(NCCOCCO)ncnc32)cc1,-14,.,i,-5,19,-3,-1,2
COc1ccc(CN(C)C(=O)/C=C/c2ccc(S(=O)(=O)N3CCOCC3)cc2)cc1F,2,.,.,.,6,-1,-6,.
C=CCNCC#CCOc1ccc(OC)cc1,-13,5,i,24,.,-6,-8,2
COc1cc2c(cc1OC)C(C)N(C(=O)c1sccc1C)CC2 (stereo unspecified),-11,-3,i,0,-3,-1,-2,-5
CCOc1cc(S(=O)(=O)NC2CC(C)(C)NC(C)(C)C2)ccc1Cl,-8,-8,i,5,-14,1,-1,-8
CCN(C(=O)CSc1nnc(-c2ccncc2)n1C)C1CCS(=O)(=O)C1 (stereo unspecified),-7,-7,i,12,.,1,0,6
CCCCOc1ccc(CONS(=O)(=O)c2ccc(NC(C)=O)cc2)cc1Cl,.,43,i,2,8,5,1,4
CCOC(=O)C1(CCOc2ccccc2)CCN(CC2CC2)CC1,-1,28,i,2,22,2,-1,1
O=c1[nH]cc(NCCc2ccccc2)c(=O)[nH]1,-2,-11,i,4,-21,0,6,12
O=C(Nc1ccc(S(=O)(=O)N2CCCC2)cc1)c1cccnc1,-16,-15,i,10,.,4,-1,1
O=c1cc(NC2CCCCC2)[nH]c(=O)[nH]1,.,-5,i,.,-12,-1,1,.
CCCNC(=O)C(=O)NCC(c1ccc2c(c1)OCO2)N1CCN(c2ccc(F)cc2)CC1 (stereo unspecified),1,11,i,4,-11,0,-3,-7
Cc1cccc(-n2c(=O)c3c(n4cnnc24)-c2ccccc2CC32CCCCC2)c1,4,-2,i,3,.,-5,0,-4
CC(C)NC(=S)NN=C1c2ccccc2-c2ccccc21,-9,1,i,-19,16,3,-1,-5
O=C(O)CC(Cc1ccc(Cl)cc1)C(=O)Nc1ccc([N+](=O)[O-])cc1 (stereo unspecified),6,-12,i,-12,12,1,8,7
COc1ccc(/C=N/Nc2ccccc2C(=O)O)cc1,-23,1,i,12,-67,2,3,-2
CCCc1c(C(=O)N/N=C/c2ccc(OCc3ccccc3)c(OC)c2)nnn1-c1nonc1N,-25,7,i,-2,-16,-1,-9,-4
N#Cc1ccc(C(=O)NC(=S)N2CCN(C=O)CC2)cc1,-17,19,.,.,-11,-2,3,.
Cc1ccc(NC(=O)COC(=O)CCc2ccc(S(=O)(=O)N3CCOCC3)cc2)cc1F,.,-7,i,12,16,0,0,5
Cc1ccc(NC(=O)CSc2nn3c(=O)c(C)nnc3s2)cc1Cl,-12,1,i,8,-18,2,0,-28
Cc1cc(C)c2cc(CN(Cc3cccs3)Cc3nnnn3CC3CCCO3)c(=O)[nH]c2c1 (stereo unspecified),8,-2,i,-11,.,0,-6,0
O=C(NC(c1ccccc1)c1ccsc1)C1CCN(Cc2ccc(Oc3ccccc3)cc2)CC1 (stereo unspecified),-8,.,.,.,4,4,2,.
Cc1ccc(N2C(=O)CN(Cc3sccc3C)C2=S)cc1C,.,43,i,12,-53,-5,-9,-4
O=C(c1ccccc1)c1ccc(Oc2ncccn2)cc1,1,-12,i,-6,10,-1,-4,-9
CCOC(=O)C(Cc1c(F)cccc1F)(NC(C)=O)C(=O)OCC,-10,1,i,14,-31,-1,-3,8
O=C(NN1C(=O)NC2(CCCCC2)C1=O)c1cc(F)cc(F)c1,-14,.,.,.,3,-1,2,.
O=C(COC(=O)[C@H](Cc1c[nH]c2ccccc12)NC(=O)c1cccs1)NCc1ccccc1,-3,-4,i,?,.,8,11,8
CCN(CC)c1ccc(/C=N/NC(=O)CNC(=O)c2ccc3c(c2)OCCO3)cc1,-11,-2,i,4,-2,-1,3,-9
Cc1ccc(NC(=O)CSc2nnc(CNC(=O)c3c(F)cccc3Cl)o2)cc1,-22,-1,i,-8,-22,2,6,-3
CCN1C[C@@H]2[C@@H]3C(=O)N(C)C(=O)[C@@H]3[C@](CC)(C1=O)N2C(=O)c1ccc(F)cc1,-3,.,.,.,-41,-1,3,.
Cc1ccc(Cl)cc1NC(=S)N(CCCN1CCOCC1)Cc1ccccn1,-31,12,i,-11,-4,4,6,-1
O=C(COc1ccc(S(=O)(=O)N2CCOCC2)cc1Cl)NC1CC1,4,-2,.,-2,4,-2,1,0
CCOC(=O)N1CCC(NC(=O)C2CCN(S(=O)(=O)c3ccc4c(c3)oc(=O)n4C)CC2)CC1,.,-12,i,22,9,1,-2,1
CC(C)CC(C(=O)Oc1ccc2c3c(c(=O)oc2c1)CCC3)N1C(=O)c2ccccc2C1=O (stereo unspecified),5,.,i,-3,-19,0,-1,-15
Cc1cccc(N2CCN(C3=NC(=O)C(Cc4ccccc4)S3)CC2)c1 (stereo unspecified),.,-9,i,8,25,-3,-4,-3
Cc1ccccc1CCNC(=O)C1CCN(S(=O)(=O)c2ccc(-n3cnnn3)cc2)CC1,8,.,i,-9,.,0,0,6
CCOC(=O)C1(Cc2ccc(Cl)cc2)CCN(C(=O)c2cnc(C)cn2)CC1,9,0,i,-2,17,1,-2,-1
Cc1cc2cc3c(cc2nc1SCc1ccccn1)OCCO3,.,8,i,-8,12,3,0,-9
COc1ccc(S(=O)(=O)N2CCOCC2)cc1NC(=O)C1CCCCN1S(=O)(=O)c1ccccc1 (stereo unspecified),3,.,.,.,20,-4,-1,.
Cc1ccc(CCSc2ccc(C(C)C)cc2)cn1,-4,.,i,-6,8,0,-9,-5
Cc1cc(C(=O)COC(=O)c2ccc(Br)o2)c(C)n1C,2,-2,i,-8,-49,-6,-4,0
CCOc1ccc(NC(=O)C2CCN(S(=O)(=O)c3c(C)n[nH]c3C)CC2)cc1,0,5,i,1,.,1,0,-1
CC1CCCC(n2cnc3cc(C(=O)O)ccc32)C1C (stereo unspecified),-24,-6,i,-5,10,-3,0,3
CSc1nsc(SCC(=O)Nc2c(C)n(C)n(-c3ccccc3)c2=O)n1,-24,-24,i,10,-15,-4,4,6
COc1cccc(CNS(=O)(=O)c2ccc3c(c2)N(C(C)=O)CCO3)c1,.,-3,i,8,5,-2,-2,0

# Next part:
canonical_smiles,Yeast UUG start,CSC inhib,Rce1 inhib,PABP FP inh,HIV Env fusion,MT1-MMP act inh,MT1-MMP act inh RFP,eIF4H inh
COCCn1c(=S)[nH]c2cc(C(=O)NC3CCCCCC3)ccc2c1=O,-6,.,.,.,3,3,-8,.
Cn1cc(Br)c(C(=O)N2CCCCCC2)n1,-15,.,i,-2,-5,3,4,-7
COC(=O)C(NC(C)=O)(Nc1sc2c(c1C(N)=O)CCCC2)C(F)(F)F (stereo unspecified),-6,1,i,-5,.,-1,1,-6
CCC(C)[C@@H](C(=O)Nc1ccc2c(c1)OCO2)N1Cc2ccccc2C1=O (stereo partly specified),-7,-1,i,2,-91,-9,-3,-10
O=C(CN1CCN(Cc2ccccc2)CC1)Nc1ccc(Br)cc1,-11,-3,i,-4,6,1,1,8
COc1cc(-c2noc(C)c2C(=O)NCCCN2CCCC2=O)cc(OC)c1OC,-1,-4,.,.,-4,4,3,.
CCOC(=O)[C@H]1[C@H]2COc3ccc(Cl)cc3[C@@H]2N2C(=O)c3ccc(F)cc3NC(=O)[C@@]12C,0,-10,.,.,25,-11,-9,.
Cc1ccc(C(=O)ON=C2CCN(S(=O)(=O)c3ccccc3)CC2)cc1,22,0,i,-1,-88,2,8,-10
CCCN(CCC)CCCNC(=O)c1ccc2c(c1)N(CC)C(=O)c1ccccc1S2=O (stereo unspecified),-1,-3,i,-10,24,4,0,-5
CCCCNC(=O)CN(CCc1ccccc1)S(C)(=O)=O,6,-4,i,-5,-12,0,2,-1
Cn1c(SCC#N)nc2ccccc2c1=O,.,-1,i,-14,-9,4,3,-3
Cn1cccc1C(=O)OCC(=O)Nc1sccc1C#N,.,-3,.,.,-117,1,6,.
O=C(O)c1ccc(N/N=C/C2=Cc3ccccc3OC2)cc1,-22,13,i,0,-64,-1,-1,-4
Cc1ccc(Cn2c(C)nc3ccc([N+](=O)[O-])cc3c2=O)cc1,-2,3,i,-2,4,1,-15,7
COc1ccc(-c2c(C#N)c(SCC(=O)c3cc4ccccc4oc3=O)nc(C)c2C(=O)Nc2ccccc2)cc1,-17,105*,i,5,.,-16,-24,-7
Fc1ccc(CSc2nc3ccccc3[nH]2)cc1,-17,6,i,-1,.,-3,-8,10
O=S(=O)(Nc1ccc(N2CCOCC2)cc1)c1ccc(Cl)s1,3,.,i,-5,-34,0,-2,5
COC(=O)c1ccc(N2CCN(C)CC2)c(NC(=O)c2ccc(-c3ccc(Cl)cc3)o2)c1,5,-8,i,7,.,2,0,7
COC(=O)c1ccc2c(=O)n(C3CCCCC3)c(SCC#N)nc2c1,-19,9,i,4,-10,-1,-8,1
Cc1ccc(S(=O)(=O)CCC(=O)N(C)C2CCCCC2)cc1,-10,-10,i,4,-1,-5,-8,0
Cc1ccc(C(=O)OCC(=O)N2CC(=O)Nc3ccccc32)s1,10,-15,i,-11,7,-3,1,-7
